Source: PubChem
eIF4H FP inh – inhibitors of RNA binding by human eIF4H. Q15056. 290,000 tested, 0.94% active. eIF4H fluorescence polarization binding assay. inhibition, % at 35 µM;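 active = 50% or more with normal probe brightness, or confirmed in later tests; about a fifth of its hits are not listed in these tables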;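 also: calls also rest on retests at 20 µM and on dose response follow-up; 0% = protein and probe with vehicle and 100% = probe without protein; strong numbers were not always called active; many hits fall short of the cut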
PABP FP inh – blocks human PABP binding to poly(A) RNA. fluorescence polarization. inhibition, % at 35 µM. 290,000 tested, 1% active. AID 2014;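 active = 50% or more with normal probe brightness, or confirmed in later tests; about a fifth of its hits are not listed in these tables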;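 also: calls also rest on retests at 20 µM and on dose response follow-up; controls were probe without protein and protein plus probe with vehicle; some compounds called inactive have numbers as strong as hits; many hits fall short of the cut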
MT1-MMP act inh – inhibitors of human MT1-MMP activation; P50281; HT1080 RFP-PRO-GFP cells, GFP/RFP ratio fluorescence, overnight; percent of plate control window, DMSO zero; GFP/RFP ratio change, % at 20 µM; 360,000 tested, 0.061% active;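 active = GFP/RFP ratio change of at least 30% with cell ATP level not reduced by more than half and red fluorescence within 50% of control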; also: strong numbers were not always called active
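Test system: HT1080 RFP-PRO-GFP cells; Benchmarks: DMSO and RFP-L50D-GFP cell wells; Timing: cells overnight before dosing, compound overnight, 37 °C, 5% CO2; Compound: one 20 µM compound dose with 1% DMSO; Read-out: GFP/RFP fluorescence ratio.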
CSC inhib – blocks cancer stem cells. cancer stem cell-like cells viability, luminescence. inhibition, % at 7.5 µM. 300,000 tested, 1.1% active;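 active = mean at 75% or more and at least half the replicates too; tested in HMLE shEcad cells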;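 also: 0% = median of negative and 100% = median of positive control wells; the first replicate is given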
Yeast UUG start – modulators of start codon recognition fidelity in yeast | S. cerevisiae UUG-firefly luciferase reporter, luminescence/redox ratio | 350,000 tested, 0.13% active | activity score, % at 18.7 µM;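 active = replicate mean at a twofold rise or more, about +100% in these data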;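 also: firefly luciferase made from a UUG start codon reports start codon fidelity; reporter light over untreated wells divided by growth signal over untreated wells; some hits fall short of that in this replicate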
Rce1 inhib – yeast Ras-converting enzyme inhibition; Q03530; yeast membranes, quenched prenylated peptide cleavage fluorescence; calls only; 290,000 tested, 0.27% active; AID 2563;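 active = fall in fluorescence gain of 50% or more versus controls, with final raw signal at or below 3038400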;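 also: plate controls were neutral control wells for no effect and wells lacking membranes for full effect; tested at 10 µM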
Target sequence (Q03530 whole entry, looked up): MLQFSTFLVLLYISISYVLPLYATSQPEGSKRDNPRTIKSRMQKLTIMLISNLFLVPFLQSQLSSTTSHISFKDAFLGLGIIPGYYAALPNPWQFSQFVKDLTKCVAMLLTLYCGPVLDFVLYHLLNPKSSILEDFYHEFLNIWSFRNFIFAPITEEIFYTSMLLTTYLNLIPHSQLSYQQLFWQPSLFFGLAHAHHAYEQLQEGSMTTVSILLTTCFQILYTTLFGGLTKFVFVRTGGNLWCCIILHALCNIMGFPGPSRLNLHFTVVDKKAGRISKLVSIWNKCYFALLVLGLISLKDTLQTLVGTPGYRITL
Env fusion inh – inhibitors of HIV Env-mediated cell fusion; HeLa-JRFL Env/CEM21 cell fusion, luciferase; 360,000 tested, 1.1% active; inhibition, % at 12.3 µM;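 active = mean replicate inhibition score of at least 50 and every replicate individually at or above 50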;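 also: 0% = plate neutral controls and 100% = maraviroc near 300 nM; one replicate is shown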
eIF4H FP inh retest – recorded beside eIF4H FP inh, whose call it bears; inhibition, %; compound at 20 µM; confirmation average;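 mean of two retest wells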
PABP FP inh retest – second read-out of PABP FP inh, no call of its own (marks repeat the call); inhibition, %; compound at 20 µM; confirmation repeats;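 mean of two retest wells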
MT1-MMP act inh RFP – further read-out of MT1-MMP act inh, marked with its call; RFP signal change, %; measured here: RFP expression control read;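 0 = vehicle wells; hits needed this value within 50% of zero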
* marks the source's active call; other numbers are inactive results; i = inactive; · = not tested or not shown; & = joins results of further samples; [ ] = remark or other dose. These rows are one share of the data (hit frequency here may not be typical).

SMILES	eIF4H FP inh	PABP FP inh	MT1-MMP act inh	MT1-MMP act inh RFP	CSC inhib	Yeast UUG start	Rce1 inhib	Env fusion inh	others
CCN(CC)C(=O)c1[nH]cnc1C(=O)N[C@H](C)c1ccccc1	·	·	4	3	7	1	·	14
CC(C)C(=O)Nc1ccc2c(c1)nc(CCN1CCN(C)CC1)n2C	7	0	2	-5	-13	-13	i	·
CC1(C)OC(=O)C2=C(C[C@@H](C3CCCCC3)O[C@H]2c2ccc(F)cc2)O1	·	·	3	-1	·	-34	·	9
O=C1NC2(O)C(=O)c3ccccc3C2(O)N1 (centres undefined)	-6	-23	0	-1	-7	·	i	2
CC(C)NS(=O)(=O)c1ccc(NC(=O)c2cccnc2)cc1	-5	-7	6	-2	-1	-12	i	-32
CCOC(=O)c1c(C)c(C(=O)NCc2ccccc2OC)c(C)n1C	-3	10	1	2	4	-4	i	9
Cc1cnc(C)c(Nc2nc(C(N)c3ccccc3)cs2)n1 (centres undefined)	·	·	-3	5	·	-23	·	-9
O=C(Nc1ccccc1)N1CCc2ccccc2C1	12	26	2	2	-22	-24	i	-85
Cc1ccc(NC(=O)CCN2CCN(CCO)CC2)cc1Br	19	48	0	2	-11	-16	i	-33
CC(C)CC(=NNC(=O)c1ccncc1)c1cc(Cl)ccc1O	·	·	-156	-11	·	-21	·	33
Cc1ccc(CCN=c2c([N+](=O)[O-])nn(-c3ccccc3)n2O)cc1	-3	-2	3	1	20	·	i	0
Cc1cccc(NC(=O)c2cccc(N3C(=O)C4C5CCC(C5)C4C3=O)c2)c1C (centres undefined)	6	13	3	-1	-4	-4	i	-17

Five structures out of the list, ordered by count of non-hydrogen atoms, rising:
SMILES	eIF4H FP inh	PABP FP inh	MT1-MMP act inh	MT1-MMP act inh RFP	CSC inhib	Yeast UUG start	Rce1 inhib	Env fusion inh	others
O=C1NC2(O)C(=O)c3ccccc3C2(O)N1 (centres undefined)	-6	-23	0	-1	-7	·	i	2
CC(C)NS(=O)(=O)c1ccc(NC(=O)c2cccnc2)cc1	-5	-7	6	-2	-1	-12	i	-32
CC(C)C(=O)Nc1ccc2c(c1)nc(CCN1CCN(C)CC1)n2C	7	0	2	-5	-13	-13	i	·
CC1(C)OC(=O)C2=C(C[C@@H](C3CCCCC3)O[C@H]2c2ccc(F)cc2)O1	·	·	3	-1	·	-34	·	9
Cc1cccc(NC(=O)c2cccc(N3C(=O)C4C5CCC(C5)C4C3=O)c2)c1C (centres undefined)	6	13	3	-1	-4	-4	i	-17

Next part:
SMILES	eIF4H FP inh	PABP FP inh	MT1-MMP act inh	MT1-MMP act inh RFP	CSC inhib	Yeast UUG start	Rce1 inhib	Env fusion inh	others
COc1cccc(CNc2ccc(F)c([N+](=O)[O-])c2)c1O	0	-2	5	-4	2	·	i	3
COc1ccc(Cn2c(CCC(=O)NCc3ccco3)nc3cccnc32)cc1	-7	-10	-6	1	8	-17	i	-1
O=C(O)Cn1ccc2cc(S(=O)(=O)N3CCCCC3)ccc21	·	·	-1	4	·	-5	·	-4
O=C(NNC(=O)c1ccncc1)Nc1cccc(C(F)(F)F)c1	-2	-1	-3	1	·	-9	i	9
COc1ccc(NC(=O)CSc2nc3c(cc2C#N)CN(C)CC3)cc1	3	20	5	3	-5	-4	i	·
Cn1c(=O)c2c(nc(SCc3ccc(F)cc3)n2C)n(C)c1=O	-13	-1	0	3	-17	-13	i	8
Cc1csc(=O)n1CC(=O)OC(C)C(=O)Nc1ccc(N(C)C)cc1 (centres undefined)	·	·	17	1	·	-11	·	-16
CN(Cc1ccccc1)C(=O)CCS(=O)(=O)c1ccc2c(c1)n(C)c(=O)c(=O)n2C	-9	-10	·	·	-8	-7	i	-48
CC(C(=O)NCC1CCCCC1)N(C)CC(=O)Nc1ccc(N2CCOCC2)cc1 (centres undefined)	0	-3	1	0	-13	·	i	-6
C[C@H](CO)N1C[C@H](C)[C@@H](CN(C)C(=O)Nc2ccc3c(c2)OCO3)Oc2c(cccc2N(C)C)C1=O	·	·	0	4	-12	7&4	·	-6[16.7 µM]
COc1ccc(-c2ccnc3c(C#N)cnn23)cc1	-9	-19	2	-3	-10	-23	i	-17
Cc1ccc(S(=O)(=O)N(C)C)cc1NC(=O)COC(=O)c1ccc2c(c1)OCO2	-4	-2	3	0	-12	·	i	-29
CC(Sc1ccsc1[N+](=O)[O-])C(=O)NCCc1ccc(Cl)cc1 (centres undefined)	-9	-7	1	-3	2	·	·	29
Cc1cc(NC(=O)c2cc3ccccc3oc2=O)no1	-8	-13	0	-1	·	-15	·	·
COC(=O)[C@H](Cc1ccccc1)NC(=O)O[C@@H]1C(=O)c2cc(OC)ccc2O[C@H]1c1ccc(OC)c(Br)c1	-8	30	·	·	6	·	i	·
c1ccc(-c2noc(CSc3nnc(Cc4cccs4)n3-c3ccccc3)n2)cc1	1	1	-7	-5	-8	1	i	-3
C/C(CC(=O)Nc1ccc(Cl)cc1C(F)(F)F)=N\NC(=O)c1ccccn1	8	11	-1	-2	-9	·	i	-8
CC(=O)Nc1ccc(NC(=O)Cn2c(=O)n(-c3ccccc3)c(=O)c3oc4ccccc4c32)cc1	-7	9	-1	-1	·	·	i	-6
CC(C)c1ccc(NC(=O)C2(C)Cc3c(-c4ccc(N(C)C)cc4)ccnc3O2)cc1 (centres undefined)	·	·	-7	-4	·	6	·	5
Cc1ccc(C2=NN(S(=O)(=O)c3ccccc3)C(c3ccccc3O)C2)cc1 (centres undefined)	-10	48	-19	-1	·	·	i	-1
CCCCNC(=O)C1C2C=CC3(CN(Cc4ccc(C)cc4)C(=O)C13)O2 (centres undefined)	2	-5	3	-2	-15	-5	·	-15
C/C(=N\Nc1ccc([N+](=O)[O-])cc1)c1ccc(-n2nncc2C)cc1	1	-4	-7	-3	7	0	i	-1
COc1ccc(Cl)cc1C(=O)O/N=C(\N)c1ccccn1	4	1	4	5	-8	-10	·	-52
CCC(C)(C)NC(=O)CN(CCc1cccc(C)c1)C(=O)c1csnn1	-3	6	0	1	10	·	i	-3
CC(=O)/C(N=Nc1nc2c([nH]1)c(=O)n(C)c(=O)n2C)=C(\C)O	18	0	0	10	-27	·	i	3
CCC(C)N1CCCCC1C(=O)Nc1c(C)cc(C)cc1C (centres undefined)	-4	-4	-2	0	-7	0	i	·
COc1ccc(N2CCN(C3CCN(S(=O)(=O)c4ccc(F)cc4)CC3)CC2)cc1	-4	2	-7	-2	4	-2	i	-7
CCOC(=O)C(NC(C)=O)C(=O)Nc1ccc(C)cc1C (centres undefined)	5	2	0	-2	2	·	i	5
CCOC(=O)[C@H]1[C@H]2COc3cc(OC)ccc3[C@@H]2N2C(=O)c3cc(OC)c(OC)cc3NC(=O)[C@@]12C	·	·	-1	-2	10	-7	·	-12
Cc1ccc(OCC(=O)NNC(=O)C2CCN(c3nccc(C)n3)CC2)cc1	4	4	2	2	-16	·	i	-10
CCN(CC)CCN(C(=O)c1ccc(S(=O)(=O)N(CC)c2ccccc2)cc1)c1nc2c(OC)ccc(OC)c2s1	0	-2	-1	-4	-5	-5	i	-13
CN1CCC[C@@H]1CCO[C@](C)(c1ccccc1)c1ccc(Cl)cc1	·	·	-12	-8	·	-10	·	-22
COc1ccc(OCC(=O)OCC(=O)Nc2ccc(S(=O)(=O)N3CCCCC3)cc2)cc1	4	1	4	5	-5	9	i	·
CC1CC(C)CN(C(=O)Cn2c(SCC(=O)N3CCc4ccccc4C3)nc3ccccc32)C1 (centres undefined)	1	-5	-8	0	-8	-11	i	·
COc1ccc(-c2nnc(Nc3ccc(S(=O)(=O)Nc4nccs4)cc3)c3ccccc23)cc1	56	-10	2	2	·	·	i	20	eIF4H FP inh retest=-12;PABP FP inh retest=9
COc1ccc2c(c1)C(C)=CC(C)(C)N2C(=O)CN1C(=O)CCC1=O	1	-6	0	2	-6	4	i	·
Cc1cc(CSc2ccccc2)ccc1NC(=O)COc1ccccc1	16	3	0	-3	-4	-5	i	-31
CCOP(=O)(Nc1ccc2oc(=O)c3ccccc3c2c1)OCC	3	9	1	4	-8	·	i	23
O=C(Nc1ccc(S(=O)(=O)N2CCOCC2)cc1)c1ccc(=O)[nH]c1	34	-1	·	·	0	·	i	-5
O=C(C1CCCO1)N1CCN(C(=S)Nc2ccc(Cl)cc2)CC1 (centres undefined)	1	46	-4	-1	-2	-15	i	-8
CC(=O)n1nc(-c2ccccc2)nc1NCc1ccc(F)cc1	-6	-9	3	4	-10	-13	i	-38
CCOc1ccccc1NC(=O)C1CCCN(S(=O)(=O)c2ccc3c(c2)C(C)(C)C(=O)N3C)C1 (centres undefined)	-3	-3	-2	-9	3	4	i	24
COc1ccc(CN(C(=O)c2ccc(-c3ccccc3)[nH]2)C(C(=O)NCC2CCCO2)c2ccc(C)o2)cc1 (centres undefined)	0	4	-9	-9	4	-17	i	-57
COc1ccc(OCc2cc(C(=O)NCCCc3ccccc3)no2)c(Cl)c1	-6	-9	-4	-5	25	-16	i	8
O=C(CCc1ccccc1)Nc1ccccc1[N+](=O)[O-]	-7	-5	-4	0	·	·	i	-23
C#CC[N+](C)(C)CC#Cc1ccc(Cl)cc1	-10	-8	-1	5	4	·	i	1
Cc1cccc(C(C(C(=O)c2ccccc2)N2CCOCC2)N2CCOCC2)c1 (centres undefined)	·	·	0	6	·	-17	·	-18
Cc1nc(-c2ccc3c(c2)CCC(=O)N3)cs1	-1	-1	7	4	-8	-14	i	47
O=C1C2ON(c3ccc(Cl)cc3)C(c3ccco3)C2C(=O)N1c1ccccc1 (centres undefined)	7	4	-1	6	9	-14	i	4
Cc1ccc(CNC(=O)CSc2ccc(-c3ccco3)nn2)cc1	2	-28	4	2	7	-9	i	-3
O=C(NCCN1C(=O)S/C(=C\c2ccc(OC(F)F)cc2)C1=O)c1cnccn1	-8	-9	-4	-14	·	·	i	·
CCOc1ccc(CC(=O)Nc2ccc(S(=O)(=O)Nc3cc(C)on3)cc2)cc1OCC	-5	5	8	4	-4	-1	i	-43
COc1cccc(-c2csc(N3CCN(C(=O)Nc4ccccc4OC)CC3)n2)c1	5	17	-6	-3	·	·	i	·
COc1ccccc1C(=O)N1CCN(C(=O)[C@H]2O[C@@H](n3cnc4c(N)ncnc43)[C@H](O)[C@@H]2O)CC1	·	·	3	6	·	-15	·	6
Cc1ccc(-n2c(C)cc(/C([O-])=C(/C(=S)Nc3ccc(F)c(Cl)c3)[n+]3ccccc3)c2C)cc1	21	28	-7	3	-2	-13	i	-8
CC1(C)CC(=O)C=C(c2n[nH]nc2C2=CCCCC2)C1	·	·	-5	0	·	-3	·	15
Cc1ccc(S(=O)(=O)N2CCC(C(=O)OCC(=O)N3CCCC(C)C3)CC2)cc1C (centres undefined)	·	·	1	3	-17	11	i	6
Cc1cc(C)c(S(=O)(=O)n2ccc(-c3ccc(OCCN(C)c4ccccn4)cc3)n2)c(C)c1	-1	2	6	-3	-2	3	i	19
COc1cc(C(=O)NCc2ccccc2)ccc1OC(F)F	-3	12	2	3	1	·	i	4
CCOc1ccc(-n2cnc3scc(-c4ccc(OC)c(OC)c4)c3c2=O)cc1	-11	-4	-7	-4	10	·	i	11

Additional structures.
SMILES	eIF4H FP inh	PABP FP inh	MT1-MMP act inh	MT1-MMP act inh RFP	CSC inhib	Yeast UUG start	Rce1 inhib	Env fusion inh	others
Cc1nn2c(-c3ccc(S(=O)(=O)N4CCN(C)CC4)o3)nnc2c2ccccc12	1	7	5	0	10	-9	i	-2
O=C(Nc1cc(S(=O)(=O)N2CCOCC2)ccc1N1CCOCC1)c1cn2ccccc2n1	2	-8	4	-2	-8	·	i	2
COC(=O)c1ccc(N2CCN(C(C)=O)CC2)c(NC(=O)COc2ccccc2C)c1	9	0	1	1	-8	-5	i	0
COc1ccc(NC(=O)c2ccccc2Oc2ccccc2)cc1	-4	-5	-6	-8	-4	-20	i	6
CC(C)n1c(O)c(N=NC(=O)CNC(=O)CCc2ccccc2)c2ccccc21	-15	0	-3	-1	-23	·	i	1
